From PubChem
CapD inh – Bacillus anthracis CapD inhibitors, primary screen, biochemical, fluorescence intensity | z-score (concentration not given with the values) | purified CapD enzyme, fluorescence intensity read-out; hits give low values; some hits fall short of the stated cut | CapD gamma-glutamyltranspeptidase (Bacillus anthracis Ames Ancestor) | 140,000 compounds, 0.23% hits;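 active = z-score under -4 in either of two replicates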;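 note: stock transfer was 100 nL into about 40 µL; score is relative to mean and spread of the plate; one replicate is shown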
AID504770 – growth inhibition of E. coli YBA685, primary screen, V. cholerae RctB inhibitors; z-score (concentration not given with the values); AID 504770, 2011; E. coli YBA685 rctB-dependent plasmid, OD600 growth, 3 h; hits give low values; 130,000 compounds, 0.27% hits;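 active = z-score under -2 on both plates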;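 note: wells of about 30 µL received 100 nL stock; score is relative to mean and SD of the test wells; the first replicate is given; strong numbers were not always called active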
Numbers without * were called inactive; / = not tested or not shown.

canonical_smiles	CapD inh	AID504770
CC(OC(=O)c1cccn1C)C(=O)Nc1ccc(Cl)cc1 (stereo not drawn)	/	0.15
CCOC(=O)C1=C(C)NC2=C(C(=O)CC(c3ccc(OC)c(OC)c3)C2)C1c1ccccc1OC(C)C (stereo not drawn)	5.3	/
CN(C)c1ccc(/C=C2/C(=O)NC(=O)N(C(C)(C)C)C2=O)cc1	-0.01	-0.85
C[C@]12CC[C@H]3[C@@H](CC[C@]4(O)C[C@@H](O)CC[C@]34C=O)[C@@]1(O)CC[C@@H]2C1=CC(=O)OC1	-0.32	/
CCN1CCN(CCNC(=O)c2ccc3c(c2)NC(=O)c2ccccc2N3)CC1	-0.28	/
CCn1c(COC(=O)c2c(NC(C)=O)sc(C)c2C)nc2cc(S(=O)(=O)N(C)C)ccc21	/	0.4
O=C1CCN(CC(=O)Nc2ccc(Cl)cc2C(F)(F)F)CC1	/	0.3
O=C(COc1ccccc1Cl)N(Cc1ccco1)Cc1ccccc1F	0.15	0.2
Oc1cccc(-c2ccc3ccccc3n2)c1	-0.03	-1.6
CC1(C)CC(=O)C2=C(C1)Nc1ccc3ccccc3c1C2c1cccnc1 (stereo not drawn)	46	1.1

Structures listed so far containing a Cl atom, in the order listed:
canonical_smiles	CapD inh	AID504770
CC(OC(=O)c1cccn1C)C(=O)Nc1ccc(Cl)cc1 (stereo not drawn)	/	0.15
O=C1CCN(CC(=O)Nc2ccc(Cl)cc2C(F)(F)F)CC1	/	0.3
O=C(COc1ccccc1Cl)N(Cc1ccco1)Cc1ccccc1F	0.15	0.2

Going on with the list.
canonical_smiles	CapD inh	AID504770
Cc1ccc(NC(=O)CCSc2nnc(C)o2)cc1	/	1.4
N#C/C(=C\c1cn(-c2ccccc2)nc1-c1cccs1)c1cccc(C#N)c1	-0.17	0
Cc1nc2nc(SCC(=O)NCC3COc4ccccc4O3)nn2c(C)c1Cc1ccccc1 (stereo not drawn)	0.33	0.1
CCc1ccccc1NC(=O)c1noc2c1CCCCC2	0.12	0.95
COc1ccc(CNS(=O)(=O)c2ccc(-c3cc(C)no3)cc2)cc1	-0.04	1.3
Cc1ccc(C)n1NC(=O)c1cccc(Br)c1	0.33	-0.1
O=C(c1ccco1)N1CCCSC1=Nc1ccccc1	/	-0.1
N#CC1=C(N)OC2=C(C(=O)CCC2)C1c1cccnc1 (stereo not drawn)	-0.18	-0.8
O=C(Nc1ccccc1)N(Cc1c[nH]c2ccccc12)C1CCCC1	0.65	-1.2
CS(=O)(=O)c1nc2ccccc2n1C/C=C/c1ccccc1	/	-0.4
COc1ccc(CCN2C(=O)/C(=C/c3c(N4CCCCC4)nc4ccccn4c3=O)SC2=S)cc1OC	0.55	/
CCCCNC(=S)NCCCC	-0.1	/
CCOc1ccc(CCN=C(CC)C2=C(O)CCCC2=O)cc1OCC	-0.28	1.1
Clc1ccc(-c2noc3ncnc(NC4CC4)c23)cc1	0.12	0.4
Cc1ccc(N(CC(=O)Nc2ccc(C)c(C)c2)S(=O)(=O)c2c(C)nn(C)c2C)cc1	-0.19	-0.15
O=C(OCc1ccccc1)c1cccc(-c2nnc(-c3ccccc3)o2)c1	-0.035	-0.65
CC1=C/C(=N/NC(=O)COc2cc(C)ccc2C(C)C)CC1	/	1.9
CC(=O)Nc1ccc(Sc2ccccc2C(=O)O)c(C(=O)O)c1	-0.23	-0.5
COc1ccc(C=C2C(=O)NC(=O)NC2=O)cc1OCc1ccc(Cl)cc1Cl	0.17	/
O=C(c1ccccc1)N1CCC(N(C2CC2)S(=O)(=O)c2ccccc2)CC1	-0.5	/
COc1cccc(/C=N/NC(=O)COc2c(C)cccc2C)c1O	/	-0.25
CC1(C)NCSC1C(=O)O (stereo not drawn)	-0.03	-0.5
CC(C)(C)C1CCC(C(=O)O)CC1 (stereo not drawn)	/	0.25
O=C(CSc1nc2ccccc2o1)NCCc1ccccc1	0.3	-0.35
CCOC(=O)CSc1nc(Cc2ccc(Cl)cc2)nc2ccccc12	-0.29	/
C=CCn1c(=C(C#N)C#N)s/c(=C\c2ccccc2OC(F)F)c1=O	/	-0.1
Cc1[nH]c2ccc(F)cc2c1CCN(Cc1ccco1)C(=S)NC1CCCCC1	0.18	-0.6
O=C1CC(Sc2nnc(-c3ccccc3O)o2)C(=O)N1c1ccc(Br)cc1 (stereo not drawn)	0.17	-0.75
C=CCn1c(SCC(=O)NCc2cccnc2)nc2sc3c(c2c1=O)CCCC3	1.7	/
c1ccc(C2=NCCCN2)cc1	/	-0.6
Cn1nc(C(C)(C)C)cc1C(=O)NCc1ccc2c(c1)OCO2	-1.3	0.15
CCCn1c(=O)c(-c2nc3ccccc3[nH]2)c(O)c2ccccc21	/	0.15
N#CC1=C(SCC(=O)Nc2ccc(Br)cc2)NC(=O)C(C#N)C1c1ccccc1Cl (stereo not drawn)	2.1	/
CS(=O)(=O)N1CCSC1c1ccc(Cl)cc1Cl (stereo not drawn)	/	1.4
CC1(C)Oc2ccc3ccc(=O)oc3c2C/C1=N/O	63	-0.5
CC(C)CNC(=O)c1ccc(N2CC3CC(C2)c2cccc(=O)n2C3)c(NC(=O)c2cc3ccccc3oc2=O)c1 (stereo not drawn)	-0.99	/
COCCCn1c(C)nnc1SCc1ccc(C(C)(C)C)cc1	/	-0.4
O=C(O)c1cccnc1SCc1ccccn1	-0.41	/
CCOC(=O)CN1C(=O)S/C(=C/c2ccc3c(c2)n(C)c(=O)n3C)C1=O	-1.6	-0.65
CCN(C(=O)N(C)C)c1ccccc1C	-0.085	-0.75
CCOC(=O)C1=C(N)n2c(s/c(=C\c3cccc(OC)c3)c2=O)=C(C#N)C1c1cccc(OC)c1 (stereo not drawn)	6	/
Cc1ccc(N2C(=O)c3sc4nc5c(c(=O)n4c3C2=O)CCC5)cc1	-0.21	/
S=C(c1ccccn1)N1CCN(C(=S)c2ccccn2)CC1	/	0.2
Cc1c(O)ccc(/C(Cc2ccc3ccccc3n2)=N\N)c1O	/	-0.9
CCOc1ccc2c(c1)c(=O)c1cccnc1n2Cc1cccc(OC)c1	-0.11	-0.6
S=c1nc2c(n[nH]1)c1ccccc1n2CCc1ccccc1	21	/
O=C(c1cc2nc(-c3ccc4c(c3)OCO4)cc(C(F)(F)F)n2n1)N1CCN(c2ccccc2)CC1	0.6	/
O=C(Oc1ccc(F)cc1)/C(=C\c1cccs1)c1ccsc1	-0.18	0.6
CCOC(=O)C1(CCSC)NC(c2cccs2)C2C(=O)N(CC)C(=O)C21 (stereo not drawn)	/	-0.6
O=N/C(C(=O)c1ccccc1)=C(\O)c1ccccc1	-0.76	-1

Further entries follow.
canonical_smiles	CapD inh	AID504770
CC1CCN(C(=O)CCC(=O)N2CCC(N(C3CC3)S(=O)(=O)c3ccccc3)CC2)CC1	-0.46	/
COc1ccc(N=C2C(=O)N(c3ccccc3)c3ccccc32)cc1	-0.42	1.6
COc1ccc(N2C(=O)/C(=C/c3ccc(-c4cc(Cl)ccc4Cl)o3)C=C2c2ccccc2)cc1	-0.36	/
CN(C)c1ccc(-n2cccc2/C=N/n2cnnc2)cc1	-0.72	-0.75
CCOc1ccc(NC(=O)c2ccc(F)c(S(=O)(=O)N3CCN(c4ccccc4Cl)CC3)c2)cc1	-0.045	/
C=C(C)[C@@H]1Cc2cc3ccc(=O)oc3cc2O1	63	-0.35
CCOC(=O)C1=CN(Cc2ccc(OC)cc2)C=C(C(=O)OCC)C1c1ccc(OC)c(OC)c1OC	84	/
CC1(C)CC(=O)C2=C(C1)N(Cc1ccccc1)C(N)=C(C#N)C21CCOCC1	3.2	-1.5
O=C1CSc2ccc(C(=O)N3CCN(S(=O)(=O)c4ccc5c(c4)CCC5)CC3)cc2N1	/	0.2
CC(=O)Nc1ccc(N=Cc2ccc(C)cc2)cc1	-0.41	-1.3

Entries of single compounds from above. Values in the order: CapD inh, AID504770
N#CC1=C(N)OC2=C(C(=O)CCC2)C1c1cccnc1 (stereo not drawn) in the list: -0.18, -0.8
COc1cccc(/C=N/NC(=O)COc2c(C)cccc2C)c1O in the list: /, -0.25
N#C/C(=C\c1cn(-c2ccccc2)nc1-c1cccs1)c1cccc(C#N)c1 in the list: -0.17, 0
Cc1ccc(C)n1NC(=O)c1cccc(Br)c1 in the list: 0.33, -0.1
CN(C)c1ccc(/C=C2/C(=O)NC(=O)N(C(C)(C)C)C2=O)cc1 in the list: -0.01, -0.85

Next part:
smiles,CapD inh,AID504770
Cc1cc(Br)c(NC(=S)NC(=O)C(C)(C)C)c(Br)c1,-0.095,-0.2
NN1C(=O)/C(=C/c2cccs2)SC1=S,/,-0.35
O=C1OCC(c2ccc(Cl)cc2)=C1c1ncc(C(F)(F)F)cc1Cl,0.36,/
C=CCSc1nnc2c(n1)OC(c1ccccn1)N(C(=O)CC)c1ccccc1-2 (stereo not drawn),-1.1,-0.9
COC(=O)c1sc(N2CCN(c3ccc(Cl)cc3)CC2)nc1N,-0.45,/
CCc1nn2cc(-c3ccc(C)cc3)nc2s1,-0.56,-0.05
CCc1nc2ccccc2c2c1C(=O)N(NC(=O)c1ccc(SC)cc1)C2=O,1.1,/
COc1ccc(C2Nc3ccccc3C(=O)N2Cc2ccco2)cc1COc1cc(C)c(Cl)cc1C(C)C (stereo not drawn),14,/
COC(=O)C12CC3CC(C1)CC(C(=O)OC)(C3)C2,-0.69,-0.2
CCCNCc1cc(OCC)c(OCC(N)=O)cc1Br,-0.84,0.05
CCOc1cccc(C2C(C(=O)c3ccc(C)o3)=C(O)C(=O)N2Cc2ccccc2)c1 (stereo not drawn),-1.2,1.6
CN=C1S/C(=C\c2cn(CC(=O)NCc3ccco3)c3ccccc23)C(=O)N1C,/,1.3
CN(c1ccnc(C(=O)NC2CCCC2)c1)S(=O)(=O)c1ccccc1,0.56,1.2
C=CCn1c(SCC(=O)c2ccc(Br)cc2)nc2cc(C(=O)NCC3CCCO3)ccc2c1=O (stereo not drawn),0.18,/
Oc1c(C(c2ccccn2)N2CCN(c3ccccn3)CC2)ccc2cccnc12 (stereo not drawn),/,-0.05
COC(OC)c1ccnc(-c2ccc(OC(=O)c3ccc(F)cc3)cc2)n1,0.45,/
COc1ccc(S(=O)(=O)NCCSc2nc3ccccc3s2)cc1OC,0.24,/
O=C(O)c1cccc(N2C(=O)CSC2c2ccccc2)c1 (stereo not drawn),-0.67,-0.5
C=CCOc1ccc(/C(O)=C2/C(=O)C(=O)N(CC3CCCO3)C23C(=O)N(C)c2ccccc23)cc1 (stereo not drawn),-0.42,-1.1
O=C(NCCCN1CCOCC1)c1cc2nc(-c3ccc(Cl)c(Cl)c3)cc(C(F)(F)F)n2n1,0.11,/
CN(C)S(=O)(=O)c1ccc(C(=O)Nc2c3c(nn2-c2ccc([N+](=O)[O-])cc2)CSC3)cc1,0.18,/
O=S(=O)(c1ccccc1)N1CCNCC1,-0.34,0.6
CC1=C(C(=O)OCCOC(C)C)C(c2cc3c(cc2Br)OCO3)C2=C(CCCC2=O)N1 (stereo not drawn),9.2,/
O=C(CSc1nc(-c2ccccc2)cs1)Nc1ccnn1C1CCCC1,/,-1
CC(C)(Cc1cc(=O)c2ccccc2[nH]1)C1CCCCC1,0.24,-1.3
COc1ccc(C(=O)NC23CC4CC(CC(C4)C2)C3)cc1,0.41,-0.1
CC1CN(S(=O)(=O)c2ccc3c(c2)C(=O)c2cc(S(=O)(=O)N4CC(C)OC(C)C4)ccc2-3)CC(C)O1 (stereo not drawn),-0.39,/
COCCOC(=O)c1c(C)oc2cc(Br)c(OC(C)C(=O)OC)cc12 (stereo not drawn),/,0.05
O=C(CCC1COc2ccccc2O1)N1CCN(Cc2ccccc2)CC1 (stereo not drawn),-0.65,-0.15
Cc1cccc(C)c1NC(=O)c1c(C(F)(F)F)ccnc1SCCN(C)C,0.01,1.1
CCN1C[C@@]2(COC)C3[C@@H](OC)[C@H]4[C@@H]1[C@@]3(C1C[C@@]3(O)[C@H](OC(=O)c5ccccc5)C1[C@]4(OC(C)=O)[C@@H](O)[C@H]3OC)[C@@H](OC)C[C@H]2O (stereo partly drawn),1.6,/
Cc1ccc(OCc2nnc(SCC(=O)NCc3ccccc3)n2-c2ccccc2)c2c1CCC2,0.095,/
Nc1nnc(SCc2ccccc2)s1,/,-0.25
O=c1c(=O)n(-c2ccccc2)ccn1Cc1ccccc1,-0.45,1.3
COc1cc(/C=C2/C(=O)ON=C2c2ccccc2)ccc1O,0.055,-0.8
Cc1nc(NC2=NC(C(=O)Nc3ccc(Cl)cc3)CC(=O)N2)nc2ccccc12 (stereo not drawn),0.3,/
C1CN=C(NC23CC4CC(CC(C4)C2)C3)C1,-0.02,0.6
O=C(c1ccco1)N1CCc2sccc2C1c1ccc(OC(F)(F)F)cc1 (stereo not drawn),0.26,-0.75
Cc1ccc(Nc2nc(N)nc(CSc3nnc4n3CCCCC4)n2)cc1,/,0.15
COc1ccc(Oc2cccc(/C=N/NC(=O)c3ccc4nonc4c3)c2)cc1,-0.67,/
O=C(CCN1C(=O)NC2(CCCC2)C1=O)Nc1nc2ccccc2[nH]1,/,0.25
Cc1ccc(C2Nc3ccccc3C(=O)N2CCCN2CCOCC2)cc1 (stereo not drawn),50,1.2
Cc1cc(-n2c(C)cc(C(=O)COC(=O)c3ccc(C)c(NC(=O)c4ccco4)c3)c2C)no1,/,0.45
COC(OC)(OC)c1cc2ccccc2c(=O)[nH]1,/,-0.2
